Bioassay records from PubChem BioAssay.
Mtb betalactam: beta-lactam sensitization of Mtb H37Rv | M. tuberculosis H37Rv growth with meropenem, percent inhibition; hits of this screen are not shown here | inhibition, % at 25 µM | actives 0.27% (n = 330,000);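 active = about 74% or more and at least 40 points above the plate without the antibiotic, then above 30% in a dose series; inconclusive = first-round hits that could not be retested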;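 note: growth measured after seven days incubation then overnight dye step; 0% = bacteria only wells and 100% = bacteria with antibiotic; twin plates without the antibiotic show which effects depend on it; some results filed as inactive read as strong as hits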
An asterisk follows results filed as active; ? = inconclusive. Some of the compounds tested; count on the stated rates, not on these rows.

SMILES	Mtb betalactam
CCOc1cc(C(=O)NC2CC(C)(C)NC(C)(C)C2)cc(OCC)c1OCC	-9.5
Cc1ccc(C2=CN(Cc3ccccc3)CCC2=O)cc1	-6.9
CC(Sc1ncn[nH]1)C(=O)Nc1cc(C(F)(F)F)ccc1Cl (stereo not given)	-4.9
O=C(NCCCc1ccc(F)cc1)C1CCC(=O)N(CC2CCCCC2)C1 (stereo not given)	?
Cc1cc(C(C)(C)CC(C)(C)C)ccc1OCCOCC[N+](C)(C)Cc1ccccc1	100.0
C=CCn1c(SCC(=O)NC(=O)Cc2ccccc2)nc2ccccc2c1=O	-0.7
COc1ccccc1NC(=O)c1ccccc1Oc1ccccc1	60.4
CCN(CC)C(=O)[C@H]1CC(CC(=O)NC/C=C(\C)CCC=C(C)C)C(=O)N2CCc3c([nH]c4ccccc34)[C@]12C (stereo not given in full)	-1.2
O=C(Nc1ccccc1N1CCOCC1)c1ccc(N2CCCC2=O)cc1	0.1
CCN(C(=O)COC(=O)/C(C#N)=C/c1ccc(N(C)C)cc1)C1CCS(=O)(=O)C1 (stereo not given)	-2.3
COc1cc(OC)cc(-c2c(-c3cccs3)c3cc(-c4cnc(OC)nc4)ccc3n2C)c1	63.1
COc1ccc(C(=O)OCC(=O)c2ccc3c(c2)NC(=O)CO3)cc1OC	0.0
CC(C)(C)[C@@H]1COC(=O)[C@H](Cc2ccc(F)cc2)C/C=C\C[C@@H](CC(=O)N(CCO)Cc2ccccc2)C(=O)N1	-3.3
C[C@@H](OC(=O)N1CCCCC1)[C@H]1O[C@]2(C)CCCC[C@H]1O2	4.5
CN(C)c1ccc(S(=O)(=O)NCC(=O)NCCC2=CCCCC2)cc1[N+](=O)[O-]	-4.9
Cc1ccc(NC(=O)CCNC(=O)c2ccccc2Cl)cc1S(=O)(=O)N1CCCCCC1	-1.2
CCOc1ccc(C(=O)NCC(=O)OCc2nnc(-c3ccccc3)o2)cc1OCC	-3.5
COc1cc([C@@H]2CC=C(C(=O)O)[C@H](c3ccc(Cl)cc3)N2S(=O)(=O)c2ccc(C)cc2)cc(OC)c1OC	-7.6
COc1cccc(-c2sc3ccc(OC)cc3c2-c2ccc(O)cc2)c1	3.3
O=S(=O)(c1ccc(Cl)cc1)N1CCCC(c2nc(-c3ccc(F)cc3)no2)C1 (stereo not given)	-3.8
Cc1nc(Cl)cc(N/N=C/c2ccc(O)cc2O)n1	-6.2
COC(=O)c1ccc(CNC(=O)COC(=O)c2cc(Cl)ccc2O)cc1	58.5
Cc1cc(C)c(NC(=O)CN(C)C(=O)c2ccc(OCc3ccccc3)cc2)c(C)c1	-2.7
COc1ccc(F)c(CN2CCN(CCc3ccccc3)C(CCO)C2)c1 (stereo not given)	4.0
COC(=O)c1ccc(NC(=O)c2ccc3c(c2)NC(=O)C2CCCN32)cc1 (stereo not given)	42.5
CCn1c(=O)c2sccc2n(CC(=O)NC2CCCCC2)c1=O	3.8
COc1ccccc1CN(C)CC(=O)Nc1cccc2ccccc12	5.0
COc1cccc(C(=O)OCC(=O)Nc2sc3c(c2C(N)=O)CCC3)c1O	0.0
O=C(COc1cc(F)ccc1[N+](=O)[O-])N1N=C(c2cccs2)CC1c1ccco1 (stereo not given)	-11.7
CC(C)NC(=O)N(C)C[C@H]1Oc2ccc(NC(=O)Cn3cnnn3)cc2C(=O)N([C@H](C)CO)C[C@@H]1C	0.9
CCc1ccccc1N1CC(C(=O)N2Cc3ccccc3CC2C(N)=O)CC1=O (stereo not given)	-5.1
CC1CCCC(NC(=O)c2cccs2)C1C (stereo not given)	7.1
C[C@@H]1CN([C@H](C)CO)C(=O)Cc2cc(NC(=O)CCC(F)(F)F)ccc2O[C@@H]1CN(C)C(=O)Nc1ccccc1	-1.4
COc1ccc(S(=O)(=O)N2CCOCC2)cc1NC(=O)CCNC(=O)c1ccc([N+](=O)[O-])cc1	2.3
CCNS(=O)(=O)c1ccc(CCC(=O)N2CCc3ccccc3C2)cc1	4.5
COc1ccc(NS(=O)(=O)c2cccc(C(=O)NNC(=O)c3ccc(C)o3)c2)cc1	-6.4
COc1ccc(Cl)cc1NC(=O)CN(C)CC(=O)Nc1ccc(S(N)(=O)=O)cc1	-0.8
COc1cccc(CNC(=O)C2CCN(S(=O)(=O)c3ccc(Br)s3)CC2)c1	5.9
CCOC(=O)C1=C(COC(=O)COc2ccccc2C=O)NC(=O)NC1C (stereo not given)	-9.9
CCOC(=O)c1ccc(-c2c(-c3ccccc3OC)oc3ccccc23)cc1F	7.8
CC1c2cccn2CCN1S(=O)(=O)c1ccccc1 (stereo not given)	8.2
C#CCOCCOCCOCCNc1nc(N2CCN(C(=O)CCCCCCCCCCNC(=O)[C@H](CCCCN)n3cc(C[C@@H](C)CC)nn3)CC2)nc(N2CCN(C(=O)CCCCCCCCCCNC(=O)[C@H](CCCN=C(N)N)n3cc(C[C@@H](C)CC)nn3)CC2)n1	99.8
CN(C)S(=O)(=O)c1cccc(NC(=O)Cc2ccsc2)c1	-6.5
CC[N+](C)(CC)CCC[n+]1c(-c2ccccc2)c2cc(N)ccc2c2ccc(N)cc21	64.6
Cc1cccc(CCN2C(N(C)C)=NC[C@@H]2Cc2ccccc2)c1	-9.0
C[C@H](CO)N1C[C@H](C)[C@@H](CN(C)C(=O)Nc2ccc(C(F)(F)F)cc2)Oc2ccc(NS(=O)(=O)c3ccc(F)cc3)cc2C1=O	-2.7
CNCC[C@@H](Oc1ccc(C(F)(F)F)cc1)c1ccccc1	6.8
CC12CCC(=O)N1C(C(=O)NNC(=O)c1ccccc1F)CS2 (stereo not given)	4.1
COc1ccc(OC)c(S(=O)(=O)NCC(=O)NC2CCCCCC2)c1	-4.0
CN(C)c1ccc(C#Cc2ccc3cc(CCCO)oc(=O)c3c2)cc1	20.4
(further entries)
SMILES	Mtb betalactam
O=C(OCC(=O)N(Cc1ccccc1)Cc1ccccc1)c1cccc(O)c1	3.0
C=CC[C@@H](CC(=O)N(CCO)Cc1ccccc1)C(=O)NC[C@H](OC(=O)[C@@H](CC=C)Cc1ccc(F)cc1)c1ccccc1	-2.8
CC1=C(/C=C/C(C)=C/C=C/C(C)=C/C(=O)Nc2ccc(O)cc2)C(C)(C)CCC1	100.1
CCC(CO)Oc1cc(NC(=O)c2ccc(N)cc2)c2ncn(C(C)C)c2c1 (stereo not given)	-7.5
CCOC(=O)C1(Cc2ccccc2C)CCCN(C(=O)c2ccc(COC)o2)C1 (stereo not given)	-6.0
Cc1ccc(S(=O)(=O)N(C)c2ccc(OC(=O)COc3ccccc3)cc2)cc1	-1.0
O=C(COc1cccnc1[N+](=O)[O-])Nc1ccc(F)cc1	-1.5
COc1cc(OC)cc(C(=O)OCC(=O)NC(c2ccccc2)c2ccccc2)c1	-2.4
CC1(c2ccccc2)NC(=O)N(CC(=O)Nc2ccc3c(c2)CCC3)C1=O (stereo not given)	2.7
Nc1cc(N)nc(SCC(=O)NCC(=O)Nc2ccc(F)c(F)c2F)n1	-8.6
COc1cccc(OCCn2cc(C(C)=O)c3ccccc32)c1	0.3
O=C(COC(=O)c1ccc(Cl)cc1)NCC1CCCCC1	3.5
COC(=O)C1=C(c2cccc(OCc3ccccc3)c2)C[C@@H]2CC[C@H]1N2C(=O)NCc1ccc(C(C)(C)C)cc1	-4.0
O=C(COC(=O)/C=C/c1cccc(C(F)(F)F)c1)Nc1ccc(Cl)cn1	0.6
CCc1ccc2nc(NC(=O)CN3C(=O)NC4(CCCC4)C3=O)sc2c1	-5.0
Cc1[nH]c2ccc(C(=O)OCC(=O)Nc3cccc(S(N)(=O)=O)c3)cc2c1C	-0.9
Cc1ccc(CNc2nc3ccccc3n2C)cc1	-12.3
O=C(O)c1cccc(Nc2nc3ccccc3nc2NS(=O)(=O)c2ccccc2)c1	1.8
Cc1noc(C)c1NC(=O)N(C)C[C@H]1Oc2ccc(NC(=O)Cc3ccccc3)cc2C(=O)N([C@H](C)CO)C[C@@H]1C	-8.2
O=C(NC[C@@H]1CCCO1)c1cccc2c1C(=O)c1ccc(N3CCOCC3)cc1S2(=O)=O	-4.0
CCOc1cc(N2CCOCC2)c(OCC)cc1NC(=O)COC(=O)c1c(CC)noc1C	-5.3
COc1cc(C(C)=O)ccc1OC(C)C(=O)Nc1ccc(S(=O)(=O)N2CCCC2)cc1 (stereo not given)	-8.0
Cc1ccc(S(=O)(=O)c2nc(-c3ccccc3Cl)oc2N2CCN(C)CC2)cc1	1.9
Cc1nn(Cc2ccccc2)c(C)c1C(=O)N1CCN(S(=O)(=O)/C=C/c2ccccc2)CC1	3.6
COc1cc(C(O)CO)ccc1O (stereo not given)	-1.2
Cn1c(O)c(C=Nc2ccc(F)cc2)c(=O)[nH]c1=O	1.9
COc1ccc(-c2c(-c3ccsc3)oc(=O)c3cc(OC)c(OC)cc23)cn1	10.2
COc1ccc(NS(=O)(=O)c2cc(NC(=O)c3cc(F)c(F)cc3Cl)ccc2N2CCOCC2)cc1	6.5
Cc1cc(C)cc(NC(=O)COC(=O)c2ccc3c(c2)OCCO3)c1	3.5
CC(C)[C@H](NC(=O)c1ccccc1)C(=O)OCC(=O)Nc1ncc(Cl)cc1Cl	-9.5
C[C@@H]1CCCCCCCCC(=O)OCCN1C(=O)OC(C)(C)C	2.6
O=C(COC(=O)COc1ccc(Cl)cc1)NCc1ccc2c(c1)OCO2	-4.9
C=CCSc1nnc(NC(=O)CSCc2c(C)noc2C)s1	1.8
O=S(=O)(c1cccc(F)c1)N1CCN(c2nc(-c3cccnc3)nc3ccccc23)CC1	-7.8
O=C1CC(c2ccc3ccccc3c2)NN1 (stereo not given)	0.1
CC(=O)c1ccc(NC(=O)COC(=O)c2c[nH]c3ccccc23)cc1	-1.8
Cc1cc(=O)c(C(=O)O)nn1-c1ccccc1C(F)(F)F	-4.4
Cc1c(Cl)cccc1NC(=O)COC(=O)c1ccc(CN2CCCC2=O)cc1	-3.5
Cc1cccc(N2CCN(C(=O)CSc3ccc4c(c3)OCCO4)CC2)c1C	-10.2
O=S(=O)(NCc1ccco1)c1ccc(Cl)s1	7.3
COc1ccc(CNC(=O)COC(=O)CNC(=O)c2sc3ccccc3c2Cl)cc1OC	-5.7
O=C(C[C@H]1C/C=C\C[C@H](Cc2ccc(F)cc2)C(=O)O[C@@H](c2ccccc2)CNC1=O)NCCO	3.7
O=C(Nc1ccccc1N1CCOCC1)c1ccc([N+](=O)[O-])s1	97.6
CCN(CC)C(=O)[C@H]1CC(CC(=O)NCCCOC)C(=O)N2CCc3c([nH]c4ccccc34)[C@]12C (stereo not given in full)	0.2
CC(=O)Nc1ccc(Nc2cc(C)nc(Nc3ccc(NC(C)=O)cc3)n2)cc1	49.2
Cc1cc(C)c(C)c(S(=O)(=O)N2CCC(C(=O)NCCCN3CCCC3=O)CC2)c1C	0.2
Cc1ccc(S(=O)(=O)N2CCCC2)cc1C(=O)NCC(C)(C)N1CCOCC1	2.1
Oc1ccc(N2CCN(Cc3nc4ccccc4[nH]3)CC2)cc1	-7.1
Cc1ccc(NC(=O)COC(=O)Cc2c[nH]c3ccccc23)cc1C	-4.2
CSc1ncccc1C(=O)Nc1nc(C(C)(C)C)cs1	-3.6

4 compounds out of the list, sorted by molar mass, smallest number first:
SMILES	Mtb betalactam
Oc1ccc(N2CCN(Cc3nc4ccccc4[nH]3)CC2)cc1	-7.1
Cc1ccc(NC(=O)COC(=O)Cc2c[nH]c3ccccc23)cc1C	-4.2
COc1ccc(CNC(=O)COC(=O)CNC(=O)c2sc3ccccc3c2Cl)cc1OC	-5.7
O=C(C[C@H]1C/C=C\C[C@H](Cc2ccc(F)cc2)C(=O)O[C@@H](c2ccccc2)CNC1=O)NCCO	3.7

Reformatted with bars between the fields: 3 of the compounds above
SMILES | Mtb betalactam
Cc1ccc(S(=O)(=O)N2CCCC2)cc1C(=O)NCC(C)(C)N1CCOCC1 | 2.1
Oc1ccc(N2CCN(Cc3nc4ccccc4[nH]3)CC2)cc1 | -7.1
Cc1ccc(NC(=O)COC(=O)Cc2c[nH]c3ccccc23)cc1C | -4.2

Later entries:
SMILES	Mtb betalactam
O=c1cc(CN2CCN(S(=O)(=O)c3cccc(Cl)c3)CC2)c2ccc(O)cc2o1	-3.4
O=C(Cn1nnc(-c2ccc(Cl)cc2)n1)NC1CCS(=O)(=O)C1 (stereo not given)	1.7
CC(C)n1nnnc1SCC(=O)N(C)C1CCS(=O)(=O)C1 (stereo not given)	2.6
N#Cc1ccccc1NC(=O)CSc1n[nH]c(=O)n1C1CC1	-4.2
COc1cc(C(=O)NCC(=O)NCC(c2ccco2)N2CCCCC2)cc(OC)c1OC (stereo not given)	0.6
CCN(CC(=O)Nc1cc(Cl)ccc1Cl)C(=O)c1ccc(-n2cccn2)cc1	-2.3
CC1(C)C(=O)Nc2ccccc2N1C(=O)COC(=O)c1ccc([N+](=O)[O-])o1	65.1
O=S(=O)(c1ccc(Cl)nc1)N1CCOCC1	-6.2
O=C(CCCOc1ccc(Br)cc1)Nc1nnc(C2CC2)s1	17.4
COc1ccccc1C(=O)NCCC(=O)NC1=NCCS1	-1.2

Individual results from the entries so far:
O=C(CCCOc1ccc(Br)cc1)Nc1nnc(C2CC2)s1 in Mtb betalactam reads 17.4
O=c1cc(CN2CCN(S(=O)(=O)c3cccc(Cl)c3)CC2)c2ccc(O)cc2o1 in Mtb betalactam reads -3.4
O=S(=O)(c1ccc(Cl)nc1)N1CCOCC1 in Mtb betalactam reads -6.2
CC(C)n1nnnc1SCC(=O)N(C)C1CCS(=O)(=O)C1 (stereo not given) in Mtb betalactam reads 2.6

Continuation:
SMILES	Mtb betalactam
COc1cc(C(=O)NNC(=O)CCOc2cccc(Br)c2)cc(OC)c1OC	-5.4
CCOc1ccc(NC(=O)CCNC(=O)N2C[C@H]3C[C@@H](C2)c2cccc(=O)n2C3)cc1	-7.7
O=C(Nc1ccc(Cl)cc1F)c1ccc2c(c1)C(=O)N(Cc1ccncc1)C2=O	-0.5
CCOC(=O)c1c(C)[nH]c(C(=O)COC(=O)CCNS(=O)(=O)c2ccc(NC(C)=O)cc2)c1C	-3.6
COc1ccccc1NC(=O)CSc1nncs1	6.3
CCOc1cccc(CN2CCC(n3nccc3NC(=O)C3CCCC3)CC2)c1	2.3
COc1ccc(Cl)cc1NC(=O)COC(=O)c1ccc(Br)o1	28.0
C[C@@]12C(=O)Nc3cc(F)ccc3C(=O)N1[C@H]1c3cc(Br)ccc3OC[C@@H]1[C@@H]2c1ccccc1	-2.4
